Screening data (PubChem)
HSV replic up = enhancers of HSV replication in host cells, fold increase, host cell viability. 220,000 tested, 0.005% active. maximum fold increase. HSV replication augmentation in cells;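 active = peak rise of 1.5-fold or more in the series; inconclusive = self-fluorescent or not available for retest; tested in PC3 cells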;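 note: first round at 10 µM; read as green reporter fluorescence; hits show the peak of a series up to 25 µM; 1 = signal of infected wells without compound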
RGS16-Gao HTS = modulators of RGS16 binding to Galphao, primary screen, biochemical, human proteins, multiplexed bead flow cytometry; Regulator of G-protein signaling 16 (Homo sapiens) + Guanine nucleotide-binding protein …; bead-based flow cytometry RGS16-Galphao binding, fluorescence; actives lie on both sides; binding response (% of control), % at 10 µM; 220,000 tested, 0.38% active; AID 1441, 2008;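 active = below 25% or above 175%, edge rows of some plates excepted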;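 note: Galphao activated by GDP with aluminum fluoride before binding; 100% = wells without compound and 0% = beads without RGS; some results beyond the cut were filed as inactive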
Target sequence (O15492 whole entry, looked up): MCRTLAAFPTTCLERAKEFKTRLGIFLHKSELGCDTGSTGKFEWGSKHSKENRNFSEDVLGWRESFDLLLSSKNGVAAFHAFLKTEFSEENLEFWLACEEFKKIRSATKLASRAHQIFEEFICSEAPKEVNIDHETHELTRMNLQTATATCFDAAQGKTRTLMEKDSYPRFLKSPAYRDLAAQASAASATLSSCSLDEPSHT
Target sequence (P09471 whole entry, looked up): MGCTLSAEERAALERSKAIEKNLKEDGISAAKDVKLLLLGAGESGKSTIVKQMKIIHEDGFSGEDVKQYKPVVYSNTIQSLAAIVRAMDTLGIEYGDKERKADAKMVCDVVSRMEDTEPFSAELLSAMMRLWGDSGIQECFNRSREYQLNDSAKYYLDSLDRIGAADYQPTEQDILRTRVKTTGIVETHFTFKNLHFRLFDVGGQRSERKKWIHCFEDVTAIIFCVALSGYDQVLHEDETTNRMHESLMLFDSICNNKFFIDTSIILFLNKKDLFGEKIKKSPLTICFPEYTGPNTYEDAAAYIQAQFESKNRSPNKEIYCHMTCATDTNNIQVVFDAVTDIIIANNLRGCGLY
PKD1 inh = inhibitors of human PKD1 kinase, biochemical, fluorescence polarization | inhibition, %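 (about 10 µM by stock and volumes)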 | 200,000 tested, 0.056% active | Serine/threonine-protein kinase D1 (Homo sapiens), Q15139 | PKD1 kinase fluorescence polarization assay;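 active = inhibition of 50% or more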;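 note: controls were vehicle for no effect and a reference inhibitor for full effect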
Insulin prom inh = inhibitors of insulin promoter-driven GFP, primary screen, imaging, TRM-6 cells (human fetal islet line), eGFP reporter, cell count; 130,000 tested, 0.9% active; reporter expression induced with tamoxifen; inhibition, % at 2 µM; AID 1273, 2008;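 active = inhibition above the mean plus 3 SD, with well images judged a real hit on visual review, cut at about 60% in these data, passing the limit was not always enough; inconclusive = inhibition over the cutoff but images rejected on review; inactive = inhibition not above the cutoff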
GALR2 agonist = GALR2 receptor agonists, primary screen, cell-based | AID 803, 2007 | Galanin receptor type 2 (Homo sapiens), O43603 | activation, %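 (tested at 5 µM)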 | 140,000 tested, 0.48% active | GALR2-expressing cells, agonist activation read-out;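 active = above mean plus 3 SD of all compounds, about 5% in these data, not always enough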;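 note: 0% = vehicle buffer wells and 100% = reference agonist at full effect; tested in CHO reporter cells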
Target sequence (O43603 whole entry, looked up): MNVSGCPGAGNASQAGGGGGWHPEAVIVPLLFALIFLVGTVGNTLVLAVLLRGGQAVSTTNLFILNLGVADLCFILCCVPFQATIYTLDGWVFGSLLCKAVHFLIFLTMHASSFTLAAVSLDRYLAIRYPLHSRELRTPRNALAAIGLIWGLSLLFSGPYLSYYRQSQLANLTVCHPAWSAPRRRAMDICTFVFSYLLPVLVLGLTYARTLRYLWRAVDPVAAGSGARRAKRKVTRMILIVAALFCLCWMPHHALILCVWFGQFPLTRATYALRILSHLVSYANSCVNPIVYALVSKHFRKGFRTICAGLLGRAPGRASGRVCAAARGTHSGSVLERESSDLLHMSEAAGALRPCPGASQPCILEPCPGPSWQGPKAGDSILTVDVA
Insulin prom inh cell count = recorded beside Insulin prom inh, whose call it bears; normalized cell count, %; measured here: cell count, toxicity; reference of the scale not given here;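 cells exposed to compound for 48 h; stained nuclei by imaging scaled within each plate; lower means fewer cells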
HSV replic up primary fold = further read-out of HSV replic up, marked with its call; fold increase; compound at 10 µM; measured here: primary screen fold increase 10 uM; tested in PC3 cells;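 GFP signal in the first replicate; 1 = infected wells without compound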
An asterisk follows results filed as active; i = inactive; ? = inconclusive; nt = not tested or not shown.

The line under a structure holds: HSV replic up, HSV replic up primary fold, RGS16-Gao HTS, PKD1 inh, Insulin prom inh, Insulin prom inh cell count, GALR2 agonist
Cc1cc(/C=N/NC(=O)c2ccc(O)cc2)c(C)n1C1CC1
 : i, 1.07, 97.8, 4.4, 26.3, 123.4, nt
COc1cccc(-n2c(Cn3nc(C(F)F)cc3C(F)F)n[nH]c2=S)c1
 : i, 0.93, 101.2, -7.7, 19.2, 118.7, -1.1
CCCCn1c(N)c(N(CCC(C)C)C(=O)CSc2nnc3ccccn23)c(=O)[nH]c1=O
 : i, 0.99, 102.8, -2.1, -18.8, 96.6, -2.4
COc1cc(C2Nc3cc(Cl)c(S(N)(=O)=O)cc3S(=O)(=O)N2)ccc1OCc1ccccc1 (stereo unspecified)
 : i, 1.07, 99.2, -5.3, -27.0, 57.8, -2.5
CN1C(=O)SC(Nc2ccc(F)cc2)C1=O (stereo unspecified)
 : i, 0.81, 113.2, -9.2, nt, nt, -2.6
Cc1cc(C(=O)CCl)c(C)n1-c1cccc(S(=O)(=O)N2CCOCC2)c1
 : i, 0.93, 103.2, 3.0, 35.0, 92.9, nt
CCCNS(=O)(=O)c1ccc(CCC(=O)N2CCCC2)cc1
 : i, 0.93, 99.0, -7.1, nt, nt, nt
O=C(c1ccc2c(c1)OCO2)C1CCCN(Cc2cccn2-c2cccnc2)C1 (stereo unspecified)
 : i, 0.88, 103.6, 2.7, nt, nt, nt
C=CCn1cc([N+](=O)[O-])nc1C
 : i, 0.97, 102.8, 2.1, 24.0, 105.1, -0.3
O=C(c1ccco1)n1nc(-c2ccccc2)nc1NCc1ccco1
 : i, 0.9, 98.7, -6.1, -20.0, 116.2, -1.5
Cc1cccn2c(=O)c(C=O)c(Sc3ncccn3)nc12
 : i, 1.09, 100.1, 14.4, 27.8, 77.5, nt
COc1ccc(C(CNC(=O)c2ccc(C)c(S(=O)(=O)N3CCCCC3)c2)N(C)C)cc1OC (stereo unspecified)
 : i, 1.03, 104.6, -0.2, nt, nt, nt
Nc1nc(SCC(=O)c2c(N)n(Cc3ccccc3)c(=O)[nH]c2=O)n[nH]1
 : i, 0.95, 108.1, nt, nt, nt, nt
O=C(CSc1nnc(-c2ccncc2)o1)N1CCc2ccccc2C1
 : i, 0.93, 109.8, -0.6, 18.2, 173.6, nt
CCOC(=O)Nc1ccc(NC(=O)c2ccccc2F)cc1
 : i, 0.98, 106.5, -2.5, nt, nt, nt
CCN(CCNC(=O)C1CCN(S(=O)(=O)CC)CC1)c1ccccc1
 : i, 1.03, 99.3, 3.5, 20.0, 125.5, -2.0
CC12C(=O)N(c3cccc4cccnc34)C(=O)C1C1C=CC2C1 (stereo unspecified)
 : i, 0.81, 100.6, 3.2, nt, nt, -0.9
O=C(NC1CC1)C1CCC(=O)N1C1CCCC1 (stereo unspecified)
 : i, 0.87, 96.1, 1.9, 0.2, 93.2, 0.2
Cc1cc(C)nc(NC2=NCC(=O)N2c2ccc(Cl)cc2)n1
 : nt, nt, 102.7, 9.8, nt, nt, -4.4
COc1cccc2cc(C(=O)C3=C(O)C(=O)N(CCN(C)C)C3c3ccc(Cl)cc3)oc12 (stereo unspecified)
 : i, 0.91, 88.0, nt, nt, nt, nt
Cc1cc(C)c(C(=O)/C=C/c2cccs2)c(=O)[nH]1
 : i, 0.87, 100.4, 2.0, nt, nt, nt
O=C(c1ccco1)N1CCN(Cc2cn[nH]c2-c2cccc3ccccc23)CC1
 : i, 1, 104.0, nt, nt, nt, nt
NNC(=O)COc1cccc(Oc2ccccc2)c1
 : i, 1.03, 102.9, -3.5, 0.0, 93.2, nt
CCCC(=O)N1CCN(c2ccc(NC(=O)c3cc4ccccc4o3)cc2)CC1
 : i, 0.82, 101.9, -9.2, -68.8, 111.3, -2.1
CSc1ccc(C(=S)N2CCN(CCO)CC2)cc1
 : i, 1.08, 93.9, -4.8, -174.3, 127.4, -1.4
C=C1CCN([C@H](C(=O)NCc2ccccc2)C(C)C)S(=O)(=O)c2ccccc21
 : i, 0.99, 93.5, nt, nt, nt, nt
O=C(N1CCOCC1)N1CCN(CC(O)COc2ccc3ccccc3c2)CC1 (stereo unspecified)
 : i, 1.09, 103.3, -10.6, 66.7, 118.8, -1.8
CC(C)CCN1CCN(Cc2nc(-c3ccc(F)cc3)cs2)CC1CCO (stereo unspecified)
 : i, 0.98, 98.1, -4.6, nt, nt, nt
CCOc1ccc(N2C(=O)/C(=C/c3ccc(C)o3)N(C)C2=S)cc1
 : i, 0.87, 81.7, -0.9, 29.7, 97.5, -2.4
CC(NC(=O)Nc1ccc(O)cc1)(C(F)(F)F)C(F)(F)F
 : i, 0.997, 104.2, -6.0, 44.0, 89.4, -1.4

New compounds follow:
structure | HSV replic up | HSV replic up primary fold | RGS16-Gao HTS | PKD1 inh | Insulin prom inh | Insulin prom inh cell count | GALR2 agonist
Cc1nnc(SCC(=O)NNC(=O)c2ccc(Cl)cc2)n1CC1CCCO1 (stereo unspecified) | i | 1.07 | 105.0 | -6.5 | 33.3 | 108.9 | nt
Cc1cccc(NC(=S)NNC(=O)c2sccc2C)c1 | i | 1.13 | 97.3 | -4.6 | 40.0 | 118.4 | -0.9
CC(=O)Nc1ccc(OC(F)(F)C(F)C(F)(F)F)c(NC(C)=O)c1 (stereo unspecified) | i | 1 | 18.4 | -2.6 | nt | nt | 0.2
CCOc1ccc(Cn2c3ccc(OC)cc3c3nc4ccccc4nc32)cc1OC | i | 1.28 | 101.6 | 8.5 | -80.7 | 116.1 | -1.5
CC(=O)c1cc2c(cc1NC(=O)CCCC(=O)O)OCO2 | i | 0.89 | 106.9 | -9.2 | 18.8 | 80.1 | -1.8
S=C1NC2(CCCCCC2)N=C1c1ccccc1 | i | 0.94 | 99.2 | -9.5 | nt | nt | nt
Cc1cc(=O)[nH]c(N/N=C/c2cn(CCC#N)nc2-c2ccccc2)n1 | i | 0.98 | 62.9 | -6.9 | -45.5 | 54.0 | nt
O=C(Nc1nccs1)c1ccc([N+](=O)[O-])cc1 | i | 1.01 | 105.7 | nt | nt | nt | nt
O=C(Nc1cccc(NC(=O)c2ccco2)c1)c1ccc([N+](=O)[O-])cc1 | i | 0.91 | 104.0 | -5.8 | nt | nt | nt
O=C(c1cc2ncc(CCCl)cn2n1)N1CCCCCC1 | i | 0.92 | 107.9 | -6.4 | -38.5 | 58.6 | 0.0
Cc1ccc(N=c2c([N+](=O)[O-])nn(-c3ccc4c(c3)OCCO4)n2O)cc1F | i | 0.91 | 92.9 | 2.6 | nt | nt | nt
CCC(=O)OCCn1c(Br)nc2c1c(=O)[nH]c(=O)n2C | i | 0.92 | 101.4 | -1.1 | 21.4 | 82.0 | -0.5
O=S(=O)(c1ccc(SCCO)nc1)N1CCCC1 | i | 1 | 112.4 | -2.5 | -48.4 | 91.4 | -0.7
C/C(=N\Nc1nc(C(=O)O)cs1)c1ccccc1 | i | 1.02 | 92.4 | -5.5 | nt | nt | nt
COc1ccc(N2CCN(c3nc(-c4cccs4)nc4ccccc34)CC2)cc1 | i | 1.07 | 100.5 | -1.6 | nt | nt | nt
O=C(COc1ccc(Cl)cc1)Nc1cccc(-c2ccc3nncn3n2)c1 | i | 0.87 | 86.9 | 4.4 | 38.9 | 105.1 | nt
CC(=O)Cc1nsc(NC(=O)c2ccc(-c3ccc(F)cc3)o2)n1 | i | 0.97 | 104.2 | -7.1 | nt | nt | nt
CCOC(=O)Cc1nnc(NC(=O)C23CC4CC(CC(C4)C2)C3)s1 | i | 0.96 | 100.8 | nt | nt | nt | nt
CCOC(=O)c1c(C)[nH]c(C(=O)CC(=O)OC)c1C | i | 0.92 | 108.7 | -1.8 | nt | nt | nt
Cn1c(NCc2c(O)ccc3ccccc23)nc2ccccc21 | i | 0.8 | 89.8 | -0.7 | 6.9 | 82.6 | -0.4
CCNC(=O)/C(=C\c1ccc2c(c1)OCO2)NC(=O)c1ccc(Br)cc1 | i | 1.02 | 88.9 | 0.6 | nt | nt | -2.9
CCC(=O)N1CCN(c2nc(-c3ccccc3)c3c(c2C#N)CCCC3)CC1 | i | 0.59 | 95.8 | -2.3 | 17.9 | 156.7 | -0.5
CC(=O)CC1=NC(C)(C)Cc2ccccc21 | i | 0.96 | 16.1* | -0.3 | 18.2 | 69.0 | nt
COc1ccc(N(C(=O)c2ccco2)S(=O)(=O)c2ccccc2)cc1 | i | 0.89 | 95.5 | 5.1 | 22.9 | 96.3 | -2.2

Entries of single compounds, looked up by structure. Order of values: HSV replic up, HSV replic up primary fold, RGS16-Gao HTS, PKD1 inh, Insulin prom inh, Insulin prom inh cell count, GALR2 agonist
COc1ccc(N2CCN(c3nc(-c4cccs4)nc4ccccc34)CC2)cc1 reads i, 1.07, 100.5, -1.6, nt, nt, nt
Cn1c(NCc2c(O)ccc3ccccc23)nc2ccccc21 reads i, 0.8, 89.8, -0.7, 6.9, 82.6, -0.4
C=CCn1cc([N+](=O)[O-])nc1C reads i, 0.97, 102.8, 2.1, 24.0, 105.1, -0.3

Back to the main list, starting 4 compounds before the break.
structure | HSV replic up | HSV replic up primary fold | RGS16-Gao HTS | PKD1 inh | Insulin prom inh | Insulin prom inh cell count | GALR2 agonist
CCNC(=O)/C(=C\c1ccc2c(c1)OCO2)NC(=O)c1ccc(Br)cc1 | i | 1.02 | 88.9 | 0.6 | nt | nt | -2.9
CCC(=O)N1CCN(c2nc(-c3ccccc3)c3c(c2C#N)CCCC3)CC1 | i | 0.59 | 95.8 | -2.3 | 17.9 | 156.7 | -0.5
CC(=O)CC1=NC(C)(C)Cc2ccccc21 | i | 0.96 | 16.1* | -0.3 | 18.2 | 69.0 | nt
COc1ccc(N(C(=O)c2ccco2)S(=O)(=O)c2ccccc2)cc1 | i | 0.89 | 95.5 | 5.1 | 22.9 | 96.3 | -2.2
O=C(NC(=S)Nc1ccccn1)c1ccc([N+](=O)[O-])cc1 | i | 0.93 | 99.6 | -3.9 | 29.6 | 120.1 | -0.2
C=CCn1c(CNc2ccc(C)cc2)nnc1SCC(=O)N/N=C/c1ccc(O)cc1O | i | 0.86 | 96.7 | 0.8 | 11.4 | 112.6 | -1.8
CC(=O)N1CCC2(CC1)CC(=O)c1cc(OCC(=O)NCc3ccco3)ccc1O2 | i | 1.25 | 104.0 | -7.8 | 9.5 | 141.1 | -2.3
CCN(CC)C(=S)Nc1ccc(Cl)c(Cl)c1 | i | 0.94 | 102.3 | -2.9 | -21.4 | 74.4 | 0.1
CS(=O)(=O)N(CC(=O)N1CCN(c2ccccc2)CC1)c1ccccc1Cl | i | 1.1 | nt | -21.3 | 6.2 | 82.3 | -2.5
O=c1cc(CSc2ccc(Cl)cc2)nc(N2CCCCC2)[nH]1 | i | 0.86 | 113.9 | 2.8 | nt | nt | 0.6
CCOc1ccc2ncc(S(=O)(=O)c3ccccc3)c(N3CCN(c4ccc(OC)cc4)CC3)c2c1 | i | 0.85 | 102.7 | -10.8 | -14.3 | 120.9 | 0.8
COC(=O)C1SCC2C(=O)N(Cc3ccccc3)CC(=O)N21 (stereo unspecified) | i | 0.98 | 38.6 | -3.3 | 18.2 | 87.9 | nt
NC(=O)CCN1CCCCC1 | i | 0.85 | 115.5 | 1.4 | nt | nt | nt
COc1ccc(C(=O)/C=C/c2ccccc2F)c(OC(=O)c2ccc([N+](=O)[O-])cc2)c1 | i | 0.97 | 99.8 | -0.9 | nt | nt | -2.1
O=C(Cn1nnc(-c2ccc3c(c2)OCO3)n1)NCc1ccccc1 | i | 0.95 | 95.1 | 1.2 | nt | nt | nt
CS(=O)(=O)N(CC(=O)NCc1ccco1)c1ccc2c(c1)OCO2 | nt | nt | 99.6 | 8.4 | -61.9 | 122.4 | -2.4
CCN(CC)S(=O)(=O)c1ccc(N=Nc2c(C)[nH]n(C(N)=S)c2=O)cc1 | ? | nt | 142.6 | 5.6 | 14.3 | 82.0 | -1.7
Cc1nnc(NC(=O)CCCN2C(=O)c3ccccc3C2=O)s1 | i | 0.92 | 103.5 | -8.9 | nt | nt | -2.5
O=C(CSc1ccccc1)Nc1nnc(COc2ccc(Cl)cc2)s1 | i | 0.92 | 88.0 | 27.1 | 38.9 | 109.0 | -0.8
COC(=O)c1ccccc1CON1C(=O)C(C)(C)N(OCc2ccccc2C(=O)OC)C(=O)C1(C)C | i | 1.07 | 102.2 | -12.5 | -48.6 | 92.7 | -1.0
